VACV mCherry inh: inhibitors of vaccinia virus infection (mCherry reporter signal). AID 720579. Potency, µM (highest dose often 36.5 µM), inactives show at the top dose activity change, negative = inhibition, usual class: inhibitors. 0.63% of 310,000 active. Vaccinia virus mCherry reporter infection, fluorescence; about a quarter of the inactives have no number; active = well fitted inhibition curve with a large enough effect; inconclusive = small, poorly fitted or top-dose-only effect; inactive = no such curve, though single readings can be large or run the other way; tested in A549 cells; further: nearly all actives have a fitted effect of over 35% in size; inactives centre near -10
Vaccinia Venus: inhibitors of vaccinia virus (Venus reporter); Vaccinia virus Venus reporter expression, fluorescence; Potency, µM (doses to about 36.5 µM), for inactives: at the highest dose activity change, negative = inhibition, usual class: inhibitors; 0.46% of 330,000 active; active means well fitted inhibition curve with a large enough effect; inconclusive means small, poorly fitted or top-dose-only effect; inactive means no such curve, though single readings can be large or run the other way; tested in A549 cells; further: nearly all actives have a fitted effect of over 30% in size; inactives centre near -10
* = called active by the depositor; i = inactive; u = inconclusive; x = not tested or not shown; & = joins results of further samples; [ ] = remark or other dose. On the % scale 0 is the no-effect control and ±100 the full control effect; potency means the concentration at half of the fitted maximal effect. Rows are unselected. Share with any hit: about 0.87%.

SMILES	VACV mCherry inh	Vaccinia Venus
COc1cccc(-c2nc(CS(=O)(=O)CC(=O)Nc3cc(F)ccc3F)c(C)o2)c1	-17%	-17%
CCCCC(=O)OCc1nc2ccccc2s1	-9%	-5%
CCOC(=O)Cc1[nH]nc2c1C(Cc1ccccc1)C(C#N)=C(N)O2 (centres undefined)	u	9%
CCOC(=O)c1cc[nH]c1CC(=O)NC	i	-15%
CCOc1ccc(CN(C(=O)c2ccccn2)c2ccc(OC)c(Cl)c2)cc1	-26%	-27%
Cc1ccc(COc2ccccc2-c2cc(C(=O)N/N=C/c3cccnc3)[nH]n2)cc1	u	-28%[7.34 µM]
CC(C)C(=O)O/N=C(\N)c1ccc(Oc2ccc(Cl)cc2)c([N+](=O)[O-])c1	-3%	-21%
Cc1nc(CN(C)C(=O)C2CCC(=O)N(CCc3cccc(F)c3)C2)cs1 (centres undefined)	-10%	-5%
O=C(CNC(=O)c1cccc(OC(F)F)c1)Nc1ccc(Cl)cc1	-29%	-11%
O=C(N[C@@H](Cc1ccccc1)C(=O)O)c1ccc(C(F)(F)F)cc1	i	-2%
CC1CCc2sc(C(=O)Nc3ccc(C(N)=O)cc3)cc2C1 (centres undefined)	-11%	-19%
O=C(/C=C/c1ccccc1)c1ccccc1O	u	-9%
O=C1Nc2ccc(Br)cc2/C1=N/N=C/C1=C(N2CCOCC2)C(=C\c2ccccc2)/CC1	-1%	9%
CCc1ccc(CCN2C(=O)c3ccccc3C2=O)nc1	i	5%
CCCCCN(C(=O)CCC(=O)OC(C)C(=O)c1ccc(Cl)cc1)c1c(N)n(CCCC)c(=O)[nH]c1=O (centres undefined)	i	-17%
CCOc1ccc(NC(=O)CSc2nc(C3CC3)nc3ccccc23)cc1	-9%	-14%
COc1ccc(NC(=O)CN2C(=O)C(C)(C)c3ccccc32)cc1Cl	-22%	-10%
O=C(OCc1ccccc1)N1CCC2CC1c1ccc(-c3cccc(F)c3)cc12 (centres undefined)	5%	-3%
CN1CC(=O)N2[C@H]3c4ccccc4OC[C@@H]3[C@H](c3ccccc3)[C@]2(C)C1=O	i	-1%
CCCCn1c(C)c(C(=O)O)c2cc(OC)ccc21	-29%	-13%
O=C(NC(=S)Nc1cc([N+](=O)[O-])ccc1Cl)c1ccccc1	x	-20%
Cc1oc(C(C)(C)C)c(CN2CCCC2)c1C(=O)O	-10%	-6%
COc1ccc(CNC(=O)C2CCN(C(=O)c3ccco3)CC2)cc1	i	16%
CCN(CC(=O)NCc1ccc(Cl)cc1)CC(=O)Nc1ccc(C(N)=O)cc1	i	-5%
CC(NC(=O)CCCn1c(=O)c2cccn2c2cccnc21)c1ccccc1 (centres undefined)	-11%	-13%
CC(C(=O)NCc1ccccc1F)n1ccc2cc(S(=O)(=O)N3CCCC3)ccc21 (centres undefined)	i	-24%
COc1ccc(CCc2nnc(CCC(=O)NCc3ccc4ncccc4c3)o2)cc1	-6%	-5%
O=C(c1cc(-c2ccco2)on1)N1CCN(c2ccccc2)CC1	-15%	-5%
Cn1nc(C(C)(C)C)cc1NC(=O)C1(C)CCN1C(=O)C1(c2ccccc2)CCCC1 (centres undefined)	1%	-6%
O=C1NC(=S)N/C1=C\c1ccccc1OCc1ccc(C(=O)O)cc1	-18%	-1%
CSc1nc(N)nc2c1ncn2CC(=O)Nc1ccc(C)c(C)c1	-27%	u
CCOc1ccc(Sc2cc(C(=O)NC(C)c3ccccc3)c3ccccc3n2)cc1 (centres undefined)	-17%	-22%
O=C1C=C(NCc2ccc3c(c2)OCO3)CC(c2ccccc2)C1 (centres undefined)	-9%	-17%
CCN(CC)c1ncnc2c1ncn2[C@H]1CN(C2CCCC2)C[C@@H](CO)O1	-9%	-13%
Cc1nnnn1/C(=C\c1ccccc1)C(=O)OCC(=O)NC1CCCCC1	u	u
CCOC(=O)C1CSC(CC(=O)Nc2ccc(OCC)cc2)C(=O)N1 (centres undefined)	x	-14%
COc1cccc(CNc2ncnc3nc[nH]c23)c1	-12%&-10%	-25%&-20%
CCCN1C(=O)c2[nH]nc(-c3ccc(F)cc3)c2C1c1ccccn1 (centres undefined)	-14%	-11%
CCC(=NCCc1ccc(OC)c(OC)c1)C1=C(O)CC(C)(C)CC1=O	i	3%
COc1c(C)cc(C(=O)C2CCCN(C(=O)Cn3nc(C)nc3C)C2)cc1C (centres undefined)	i	-9%
COc1ccc(-c2csc(NC(=O)c3cccc(N4C(=O)CCC4=O)c3)n2)cc1C	i	-6%
CCOc1ccccc1NC(=O)CSc1nnnn1-c1ccc(C(=O)OC)cc1	-8%	4%
CCN(CC)C(=O)c1ccc(-c2nnc(OC)c3ccccc23)cc1	-12%[7.34 µM]	0%[7.34 µM]
CCCCOC(=O)c1ccc(Nc2nc3ccc(C(=O)c4ccccc4)cc3n3cnnc23)cc1	-27%	u
CCN(CC)CCN(C(=O)c1ccc(C(=O)c2ccccc2)cc1)c1nc2c(OC)cccc2s1	-13%	-7%
O=C1CCCCCN1Cc1ccccc1	-12%	-11%
CCC(CO)Oc1cc(NCc2ccc(C)cc2)c2ncn(C(C)C)c2c1 (centres undefined)	-24%	-23%
Cc1sc(NC(=O)c2cccs2)c(C(N)=O)c1C	-18%	2%
Cc1cc2c(cc1S(=O)(=O)Nc1cc(C(F)(F)F)cc(C(F)(F)F)c1)OCC(=O)N2	-10%	-5%
Cc1ccc(F)cc1C(=O)N1CCCCC1c1cc(C(=O)NC(C)C)no1 (centres undefined)	-9%	-15%
CCOC(=O)C1=CN(Cc2cccc(F)c2)S(=O)(=O)N(C)C1c1ccccc1 (centres undefined)	-14%	-4%
NN=C1c2cc(S(=O)(=O)NCCO)ccc2-c2ccc(S(=O)(=O)NCCO)cc21	-7%	-10%
CC(C)c1ccc(NC(=O)c2cc(S(=O)(=O)NC3CCCCC3)ccc2F)cc1	-24%	-29%
COc1ccc(Br)cc1C(=O)Nc1ccc(N2CCN(S(C)(=O)=O)CC2)cc1	-8%	-18%
CCn1c(SCC(=O)Nc2ccc(OC)cc2)nnc1-c1ccco1	i	-2%
COc1ccc(C)cc1NC(=O)CSCc1cc(=O)n2c(C)csc2n1	-15%	-13%
CCc1ccc(NC(=O)CC2C(=O)N(c3cccc(C)c3)C(=O)N2CCC(C)C)cc1 (centres undefined)	-11%	-24%
CCCCCCNS(=O)(=O)c1nc2nc(C)cc(C)n2n1	i	3%
NCCc1nc(-c2ccccc2)cs1	-13%	-13%
Cc1cc(=O)[nH]c(N/N=C/c2ccc(Br)s2)n1	-6%	-20%
Additional structures
SMILES	VACV mCherry inh	Vaccinia Venus
COc1ccc(C(=O)Cn2cnc3ccccc3c2=O)cc1OC	-10%	4%
CN(C)Cc1ccccc1-c1ccc2ncnc(NC3CC3)c2c1	-29%	-28%
CCN(C1CCCCC1)S(=O)(=O)CCNC(=O)c1ccccc1	-14%	-7%
Nc1ncnc2oc(-c3ccoc3)c(-c3ccco3)c12	u	-16%
COc1ccc(-c2noc(CSc3nnc(-c4ccncc4)n3-c3ccc(C)cc3)n2)cc1	-5%	5%
CCc1ccc(N(C(=O)C(F)(F)F)C(C(=O)NC2CCCCC2)c2ccncc2)cc1 (centres undefined)	0%	-2%
Cc1nc2c3ccccc3n(CC#N)c(=O)n2n1	-11%	-2%
Cc1ccc(NC(=O)CNc2ccc(Cl)cc2F)cc1	-9%	3%
CC(=O)Nc1ccc(NC(=O)C(C)OC(=O)/C=C/c2cnc3ccccc3n2)cc1 (centres undefined)	-1%[7.34 µM]	-12%[7.34 µM]
COCCCNC(=O)C(=O)C1C(=O)Nc2ccccc21 (centres undefined)	i	-18%
C/C(NC(=O)c1cccs1)=C1\C(=O)C[C@@H]2[C@H]1C2(C)C	x	-19%
COc1ccc(OCC(=O)NC(CC(=O)O)c2ccc(OC)c(OC)c2)cc1 (centres undefined)	-14%	1%
O=C(O)c1ccc(N/N=C/c2cccc3cccnc23)cc1	1%	9%
Cc1ccnc(NC(=O)CCC(=O)N(CC(=O)NC(C)(C)C)c2ccc(F)c(Cl)c2)c1	i	-14%
Clc1ccc2nc(-c3ccccn3)c(Nc3ccc4c(c3)OCO4)n2c1	8%	4%
COCCCNC(=O)c1csc([C@H]2C[C@H](O)[C@@H](CO)O2)n1	-11%	-14%
Cc1cccc(NC(=O)c2oc3ccccc3c2NC(=O)c2cc(=O)c3cc(Cl)ccc3o2)c1	-24%	u
CCOC(=O)C1(Cc2ccccc2)CCN(Cc2ccc(C)s2)CC1	-16%	-8%
CC1(C)C[C@H]2C3=CCC4[C@@]5(C)CC[C@H](O[C@@H]6O[C@H](C(=O)O)[C@@H](O)[C@H](O)[C@H]6O)[C@@](C)(CO)C5CC[C@@]4(C)[C@]3(C)C[C@H](O)[C@@]2(CO)[C@@H](O)[C@@H]1O (some centres undefined)	-4%	-9%
COc1ccc(-n2ccnc(NCCc3ccc(S(N)(=O)=O)cc3)c2=O)cc1	-15%	-3%
COc1cccc(C(=O)OCCN2CCCCC2)c1	x	-3%
Cc1nn(C(C)(C)C)c(OC(=O)c2ccc3c(c2)OCO3)c1S(=O)(=O)c1ccccc1	x	u
O=C(Nc1cccc(-c2nc3ccccc3s2)c1)c1cc(=O)c2ccccc2o1	-5%	-6%
Cc1ccc(C(=O)NCC(=O)O)cc1S(=O)(=O)N1CCCCC1	-11%	-11%
CCCCNC(=O)CC1Nc2cc(C)c(C)cc2NC1=O (centres undefined)	1%	1%
COc1ccc(-n2c(SCC(=O)Nc3cccc(C)c3C)nc3c([nH]c4ccccc43)c2=O)cc1	u	-27%
COc1ccc(CNC(=O)C2CCN(S(=O)(=O)c3cc(OC)ccc3OC)CC2)cc1	-9%[1.46 µM]	-19%
CC(OC(=O)c1ccc2ncsc2c1)C(=O)Nc1ncc(Cl)cc1Cl (centres undefined)	-13%	0%
Cc1cc2cc(CNC(=O)c3ccc(S(=O)(=O)N4CCOCC4)cc3)ccc2[nH]1	45%[activator]	8%
CSc1nnc(C)c(=O)n1COC(=O)c1ccc([N+](=O)[O-])cc1	i	13%
Cc1ccc(C(=O)N2CCN=C2SCc2ccc([N+](=O)[O-])cc2)cc1	-25%	u
COc1ccc(OC)c(CNC(=O)CN2C(=O)CCn3nc(-c4cn(C)c5ccccc45)cc32)c1	-14%	4%
CC(=O)c1cccc(NC(=O)C2Cc3c(-c4cccc(C(N)=O)c4)ccnc3O2)c1 (centres undefined)	-23%	3%
O=S(=O)(NCCc1csc2nc(-c3ccc(Cl)cc3)nn12)c1ccc2c(c1)OCCO2	-24%	-19%
COc1cc(C(=O)Nc2ccc(NC(C)=O)cc2)ccc1OCc1ccccc1	i	-13%
CC1(C(=O)O)CCCN(C(=O)/C=C/c2ccccc2)C1 (centres undefined)	6%	-5%
COc1ccc(OC)c(S(=O)(=O)N/N=C(/C)c2ccc3c(c2)OCO3)c1	i	-12%
Cc1ncc(CN2CCC(N3CCC(C(=O)N4CCCC4)CC3)CC2)s1	i	-2%
CC(=O)c1c(C)[nH]c(C(=O)CN2C(=O)NC3(CCCCC3C)C2=O)c1C (centres undefined)	4%	-1%
Cn1c(=O)cc(SCC(=O)N2CCN(c3ccccc3F)CC2)c2ccccc21	7%	1%
Cc1nc(CCNC(=O)c2cccs2)cs1	i	-3%
COc1ccc(C)cc1S(=O)(=O)N(CC(=O)NC1CCCC1)c1ccc(F)cc1	-14%	-21%
C=CCOC(=O)C(C#N)c1nc2ccccc2nc1N1CCN(c2ccccc2OC)CC1 (centres undefined)	x	-17%
Cc1ccc(NC(=O)CN(C)C(=O)Cn2nnc(-c3ccccc3C)n2)cc1	i	-16%
O=C(NCc1ccccn1)C1Nc2ccc(OC(F)(F)F)cc2C2C=CCC12 (centres undefined)	u	u
O=C(Nc1ccc(N2CCOCC2)c(Cl)c1)c1ncn[nH]1	x	-14%
CCOc1cccc(C(c2c(C)n(C)n(-c3ccccc3)c2=O)c2c(C)n(C)n(-c3ccccc3)c2=O)c1OC	-4%	-6%
O=C(OC1CCOC1=O)c1ccc(CO)cc1 (centres undefined)	i	-2%
COc1ccccc1N1CC(C(=O)OCC(=O)Nc2c(C)cccc2C)CC1=O (centres undefined)	i	-4%

Bioassay records (PubChem BioAssay)
